# Yeast UUG start: alters start codon recognition fidelity in yeast; 350,000 tested, 0.13% active; activity score, % at 18.7 µM; S. cerevisiae UUG-firefly luciferase reporter, luminescence/redox ratio;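 active = replicate mean at a twofold rise or more, about +100% in these data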;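 also: firefly luciferase made from a UUG start codon reports start codon fidelity; reporter light over untreated wells divided by growth signal over untreated wells; some hits fall short of that in this replicate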
# eIF4H inh: inhibitors of RNA binding by human eIF4H; inhibition, % at 35 µM; eIF4H fluorescence polarization binding assay; Q15056; 290,000 tested, 0.94% active;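 active = 50% or more with normal probe brightness, or confirmed in later tests; inconclusive = above 50% with abnormal brightness, or retests that disagree; inactive = below 50% or failed in later tests; about a fifth of its hits are not listed in these tables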;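 also: calls also rest on retests at 20 µM and on dose response follow-up; 0% = protein and probe with vehicle and 100% = probe without protein; strong numbers were not always called active; many hits fall short of the cut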
# CSC inhib: cancer stem cell inhibition | cancer stem cell-like cells viability, luminescence | inhibition, % at 7.5 µM | 300,000 tested, 1.1% active | AID 2717;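 active = mean at 75% or more and at least half the replicates too; inconclusive = mean and replicates disagree; tested in HMLE shEcad cells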;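 also: 0% = median of negative and 100% = median of positive control wells; the first replicate is given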
# PABP polyA inh: blocks human PABP binding to poly(A) RNA. fluorescence polarization. AID 2014. P11940. inhibition, % at 35 µM. 290,000 tested, 1% active;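 active = 50% or more with normal probe brightness, or confirmed in later tests; inconclusive = above 50% with abnormal brightness, or retests that disagree; inactive = below 50% or failed in later tests; about a fifth of its hits are not listed in these tables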;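 also: calls also rest on retests at 20 µM and on dose response follow-up; controls were probe without protein and protein plus probe with vehicle; some compounds called inactive have numbers as strong as hits; many hits fall short of the cut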
# Target sequence (P11940 whole entry, looked up): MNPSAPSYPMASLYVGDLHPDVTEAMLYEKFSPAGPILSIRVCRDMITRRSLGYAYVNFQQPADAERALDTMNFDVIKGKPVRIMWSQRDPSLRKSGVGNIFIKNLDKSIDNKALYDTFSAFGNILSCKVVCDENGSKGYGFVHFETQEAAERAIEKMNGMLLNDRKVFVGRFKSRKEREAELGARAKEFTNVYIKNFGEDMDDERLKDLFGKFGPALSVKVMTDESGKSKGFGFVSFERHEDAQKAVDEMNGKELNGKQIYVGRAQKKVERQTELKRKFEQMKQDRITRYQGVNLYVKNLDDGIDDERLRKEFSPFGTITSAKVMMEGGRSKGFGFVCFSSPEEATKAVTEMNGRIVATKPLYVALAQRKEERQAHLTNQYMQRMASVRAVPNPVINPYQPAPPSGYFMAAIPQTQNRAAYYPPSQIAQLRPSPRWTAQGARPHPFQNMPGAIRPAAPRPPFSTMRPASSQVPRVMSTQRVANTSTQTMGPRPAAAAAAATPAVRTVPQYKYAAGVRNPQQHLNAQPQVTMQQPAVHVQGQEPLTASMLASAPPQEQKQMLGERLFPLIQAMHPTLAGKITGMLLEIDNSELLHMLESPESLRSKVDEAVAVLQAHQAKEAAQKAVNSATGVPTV
# Rce1 inhib: yeast Ras-converting enzyme inhibition; Q03530; yeast membranes, quenched prenylated peptide cleavage fluorescence; calls only; 290,000 tested, 0.27% active;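 active = fall in fluorescence gain of 50% or more versus controls, with final raw signal at or below 3038400; inconclusive = same 50% fall but final raw signal above 3038400; inactive = fall in fluorescence gain under 50%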;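 also: plate controls were neutral control wells for no effect and wells lacking membranes for full effect; tested at 10 µM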
# Target sequence (Q03530 whole entry, looked up): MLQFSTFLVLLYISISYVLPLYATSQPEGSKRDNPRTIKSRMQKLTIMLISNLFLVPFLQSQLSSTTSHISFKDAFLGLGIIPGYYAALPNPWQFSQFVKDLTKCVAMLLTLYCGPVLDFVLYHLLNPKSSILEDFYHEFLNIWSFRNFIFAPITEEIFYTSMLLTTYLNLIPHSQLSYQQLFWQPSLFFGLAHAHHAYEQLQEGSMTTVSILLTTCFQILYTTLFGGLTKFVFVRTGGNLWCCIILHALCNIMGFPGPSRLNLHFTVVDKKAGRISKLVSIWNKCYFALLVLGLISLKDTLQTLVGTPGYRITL
# MT1-MMP act inh: MT1-MMP (human) activation inhibition. HT1080 RFP-PRO-GFP cells, GFP/RFP ratio fluorescence, overnight; percent of plate control window, DMSO zero. GFP/RFP ratio change, % at 20 µM. 360,000 tested, 0.061% active;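 active = GFP/RFP ratio change of at least 30% with cell ATP level not reduced by more than half and red fluorescence within 50% of control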; also: strong numbers were not always called active
#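 Assay system – RFP-PRO-GFP reporter HT1080 cells · Compound dosing – single dose of 20 µM compound, 1% DMSO final · Incubation – overnight compound exposure at 37 °C · Measure – GFP/RFP fluorescence ratio · Benchmarks – DMSO wells and RFP-L50D-GFP cells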
# Env fusion inh: inhibitors of HIV Env-mediated cell fusion; inhibition, % at 12.3 µM; HeLa-JRFL Env/CEM21 cell fusion, luciferase; AID 651610; 360,000 tested, 1.1% active;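 active = mean replicate inhibition score of at least 50 and every replicate individually at or above 50; inconclusive = only one of the two criteria met; inactive = mean below 50 and not all replicates reaching 50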;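 also: 0% = plate neutral controls and 100% = maraviroc near 300 nM; one replicate is shown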
# eIF4H inh retest: second read-out of eIF4H inh, no call of its own (marks repeat the call); inhibition, %; compound at 20 µM; confirmation average;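 mean of two retest wells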
# PABP polyA inh retest: further read-out of PABP polyA inh, marked with its call; inhibition, %; compound at 20 µM; confirmation repeats;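 mean of two retest wells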
# MT1-MMP act inh RFP: recorded beside MT1-MMP act inh, whose call it bears; RFP signal change, %; measured here: RFP expression control read;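 0 = vehicle wells; hits needed this value within 50% of zero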
# * marks the source's active call; other numbers are inactive results; i = inactive; ? = inconclusive; · = no result given.
SMILES,Yeast UUG start,eIF4H inh,CSC inhib,PABP polyA inh,Rce1 inhib,MT1-MMP act inh,MT1-MMP act inh RFP,Env fusion inh,others
CCC(=O)N(C)C(c1ccccc1Cl)c1nnnn1-c1c(C)cccc1C (stereo not given),-2,2,3,3,i,-3,2,69*,
COc1ccc(N2CCN(CC(O)c3c[nH]c4ccc(OC)cc34)CC2C)cc1 (stereo not given),10,3,-4,3,i,1,0,·,
N#Cc1c(NC(=O)CSc2n[nH]c(N)n2)oc(-c2ccccc2)c1-c1ccccc1,-23,10,-8,-2,i,0,-1,·,
Cc1cc(C)nc(NC(=O)/C=C/c2ccc(Cl)cc2)n1,-13,5,-3,-1,i,-2,-5,10,
Cc1ccc(C(=O)OCC(=O)N2c3ccccc3NC(=O)C2(C)C)cc1S(=O)(=O)N1CCCCC1,-14,·,0,·,·,-7,-9,59*,
CC1CN(c2ccc([N+](=O)[O-])cn2)CC(C)O1 (stereo not given),·,-10,-3,-2,i,-1,2,6,
COc1ccc(CC(=O)NNC(=O)CSc2nnc(C)n2-c2ccccc2)cc1,-9,2,·,6,i,2,6,14,
Cc1ccc2c(Cl)c(C(=O)NCc3cccnc3)sc2c1,-14,4,3,-12,i,3,-8,-14,
CC1(C)O[C@@H]2[C@@H](CO[C@@]3(COS(N)(=O)=O)OC(C)(C)O[C@@H]23)O1,·,3,3,6,i,·,·,·,
COc1ccc(NS(=O)(=O)c2cccc(NC(=O)NC3CCCCC3)c2)cc1,7,2,-7,1,i,-2,-15,29,
C#CCOCCOCCOCCNc1nc(N2CCN(C(=O)[C@H]([C@@H](C)O)n3cc(CCCCN)nn3)CC2)nc(N2CCN(C(=O)[C@H](C)n3cc(CCC(=O)O)nn3)CC2)n1,-9,·,·,·,·,-3,2,-1,
CCOC(=O)Cc1nn(Cc2nc(-c3ccc(C#N)cc3)cs2)c(=O)c2ccccc12,·,-3,6,-7,i,6,-21,28,
CCOC(=O)C1(CC2CC2)CCN(Cc2ccc3cccc(F)c3n2)CC1,·,13,1,9,·,-1,-1,13,
COc1ccc(C(=O)Nc2sc(C)c(-c3ccccc3)c2C#N)cc1OC,-11,-5,-1,-4,·,11,-7,-87,
NC(=O)c1oc2ccccc2c1NC(=O)c1ccc(F)cc1,-17,-1,-8,-8,i,-4,-1,-7,
Cc1ccc(C)[n+](CC(=O)c2ccc(-c3ccccc3)cc2)c1,·,-2,22,6,i,-2,-4,15,
COc1cccc(-c2noc(C3CCCN(S(=O)(=O)c4cccc(Cl)c4C)C3)n2)c1 (stereo not given),-9,-4,-1,9,i,-6,-5,112*,
COc1ccccc1Nc1nc(Cl)nc(NC(C)(C)C)n1,·,-10,-6,0,i,2,-6,5,
COc1ccc(NC(=O)Cn2ccc(C(F)(F)F)n2)cc1S(=O)(=O)N1CCOCC1,-23,·,-4,·,·,0,-3,-58,
CCOC(=O)C1(Cc2cccc(OC)c2)CCN(C(C)COC)CC1 (stereo not given),·,-3,-12,-6,i,-1,4,-26,
CN(C)CCSc1nnc2sc3ccccc3n12,-16,1,-18,-5,i,7,7,·,
CCCCn1c(SCC(=O)c2ccc(OC)c(OC)c2)nc2cc(S(N)(=O)=O)ccc21,·,2,-20,2,i,3,9,-13,
CCN(CC)c1ccc(N=Nc2nn(C)c(C)c2[N+](=O)[O-])cc1,-24,-12,-1,-10,i,44,-1,-80,
O=C(NCc1n[nH]c(=S)n1-c1cccc(Cl)c1)c1ccc(S(=O)(=O)N2CCCC2)cc1,-8,-5,-16,-1,i,-4,2,24,
CCn1c(O)c(C=NCc2cccs2)c(=O)n(CC)c1=S,-17,-5,15,9,i,-8,1,17,
CCc1ccc(C(=O)CSC2=C(C#N)C(c3ccco3)C(C(C)=O)=C(C)N2)cc1 (stereo not given),·,72*,80*,12,i,·,·,·,eIF4H inh retest=68*;PABP polyA inh retest=23
COCC(=O)N1CCc2ccc(NC(=O)c3ccc(C(F)(F)F)cc3)cc2C1,-25,·,-14,·,i,3,-15,-8,
COc1cc(C(=O)NCCCOC(C)C)ccc1OC1CCN(C(C)=O)CC1,-3,-11,35,0,i,-1,2,2,
CCCCCc1cc(=O)oc2c(C(CCN3CCCC3)c3ccc(N(C)C)cc3)c(OC)cc(OC)c12 (stereo not given),-4,-9,17,-18,i,3,-2,0,
Cc1ccc(-c2cc(-c3ccccc3)c(C#N)c(N)n2)o1,1,?,5,118*,i,-36,9,-41,PABP polyA inh retest=93*

# Grouped by structure: the entries above with a nitro group on carbon
SMILES,Yeast UUG start,eIF4H inh,CSC inhib,PABP polyA inh,Rce1 inhib,MT1-MMP act inh,MT1-MMP act inh RFP,Env fusion inh,others
CC1CN(c2ccc([N+](=O)[O-])cn2)CC(C)O1 (stereo not given),·,-10,-3,-2,i,-1,2,6,
CCN(CC)c1ccc(N=Nc2nn(C)c(C)c2[N+](=O)[O-])cc1,-24,-12,-1,-10,i,44,-1,-80,

# (further entries)
SMILES,Yeast UUG start,eIF4H inh,CSC inhib,PABP polyA inh,Rce1 inhib,MT1-MMP act inh,MT1-MMP act inh RFP,Env fusion inh,others
O=C(NCc1cccs1)c1cccn2c(=O)c3sccc3nc12,·,-1,-4,2,i,-7,-5,6,
CCC(C)N1C(=O)N(C)C2NC(=O)NC21 (stereo not given),·,4,-7,5,i,1,7,3,
COc1ccc(NS(=O)(=O)c2cc(OC)ccc2OC)cc1,-13,·,3,·,i,0,3,-4,
CCOC(=O)C1(CCCc2ccccc2)CCN(Cc2cnn(C)c2)CC1,·,-3,-10,-2,i,-2,-1,14,
O=C(Cn1cnc2c(nnn2Cc2ccc(Cl)cc2)c1=O)N1CCCc2ccccc21,-6,1,-9,-6,i,0,-4,·,
CCOC(=O)c1cc(OC(=O)c2ccccc2OC)n(-c2ccccc2)n1,-13,-2,-3,17,i,-1,2,-14,
CN(Cc1cccc(C(F)(F)F)c1)C(=O)C1CCC(=O)N(CC2CCCCC2)C1 (stereo not given),-13,47,-2,2,i,-11,-4,15,
Cc1c(C(=O)NC(=S)Nc2ccc(NC(=O)c3cccs3)cc2)oc2ccccc12,3,·,11,·,i,2,0,-14,
CCN(CC)CCCNC(=O)c1ccc(CS(=O)(=O)c2ccccc2OC)o1,-18,2,-5,2,i,-1,4,-6,
CC1Cc2ccccc2N1S(=O)(=O)c1cccc(C(=O)NCc2ccco2)c1 (stereo not given),-5,·,-17,·,·,2,-1,·,
Cc1cc(C)nc(SCC(=O)c2ccc(O)cc2O)n1,-6,8,-6,3,i,-2,0,-15,
Cc1cccc(C(=O)NNC(=O)c2ccc(F)cc2)c1,·,-8,-2,-12,·,5,7,-13,
O=C(CN1CCN(c2ccccc2O)CC1)NC(=O)NC1CCCC1,-17,-9,-4,4,i,1,-6,2,
C(=N\N(c1ccccc1)c1ccccc1)/c1ccccn1,-15,-6,12,2,i,0,0,6,
O=C(Oc1ccc2ccc(=O)oc2c1)N1CCOCC1,-29,0,11,11,i,-2,-7,·,
COc1ccc(S(=O)(=O)N2CCCCC2)cc1,-11,-11,-16,-5,i,3,1,·,
O=C(N/N=C/c1ccco1)c1ccc(NC(=O)c2ccc(Cl)cc2)cc1,-18,11,·,5,i,5,1,-10,
Cc1nn(C)c(Cl)c1C(=O)NCC(=O)Nc1ccc(C(C)C)cc1,·,-3,-2,8,i,5,-2,5,
C=C(C)c1cccc(C(C)(C)NC(=O)Nc2cc(C)ccc2OC)c1,-23,-14,-17,-8,i,-16,-12,-198,
CN(CC(=O)Nc1ccc(F)c(F)c1F)C(=O)C1(c2ccccc2)CC1,-10,·,·,·,·,-3,2,7,
COc1ccc(CCNC(=O)Cn2cccc2C(=O)c2ccccc2C)cc1OC,·,0,-6,-14,i,-4,1,10,
COC(=O)N1CCc2c(sc(NC(=O)C3COc4ccccc4O3)c2C(N)=O)C1 (stereo not given),-7,·,-4,·,i,-4,-7,-17,
Cc1noc(C)c1C(=O)OCC(=O)Nc1ncc(C(F)(F)F)cc1Cl,-8,·,1,·,·,1,0,·,
CCOc1ccc(N=C2NC(=O)S/C2=C\c2ccc(Cl)cc2)cc1,·,19,1,-11,i,7,8,-1,
Cc1onc(-c2c(F)cccc2Cl)c1C(=O)OCC(=O)c1c[nH]c2ccccc12,0,-2,3,3,i,-5,-12,9,
Cc1ccc(C2=NS(=O)(=O)N(C)C(C(=O)NCc3ccc(F)cc3)=C2)cc1,-5,6,-11,-6,i,1,1,·,
Cc1ccccc1OCC(=O)NNC(=O)C1CCN(c2ncnc3sc(C)c(C)c23)CC1,·,·,-5,·,i,-1,-4,2,
Cn1nc(C(=O)NNC(=O)c2cccc(Cl)c2)ccc1=O,-20,·,-15,·,·,0,-1,-21,
COc1cccc(OC)c1C(=O)Nc1ccccc1Sc1ccccc1,-2,·,-1,·,i,-1,-5,35,
N=c1c2c3c(sc2ncn1CCN1CCOCC1)CCCC3,-10,-1,-8,5,i,-2,1,12,
COC1CCCN(C(=O)c2cccc(OC3CCN(S(=O)(=O)N(C)C)CC3)c2)C1 (stereo not given),-17,-4,0,1,i,0,-11,-1,
OC(c1ccc(F)cc1)c1ncc(-c2ccc3ccccc3c2)[nH]1 (stereo not given),-19,·,·,·,·,5,-8,-57,
COC(=O)C1(C(F)(F)F)N=C2Sc3ccccc3N2C(N2CCOCC2)=N1 (stereo not given),-11,-12,-2,82,i,-6,0,4,eIF4H inh retest=-1;PABP polyA inh retest=1
CCN(C(=O)c1cc([N+](=O)[O-])ccc1NCc1cccnc1)c1ccccc1,6,1,·,-11,i,-1,1,6,
COc1ccc(-c2nn(-c3ccccc3)cc2/C=C/C(=O)NCCCn2ccnc2)cc1OC,·,-2,19,-8,·,1,-3,4,
O=S(=O)(c1ccccc1)N1CCN(Cc2ccccc2)c2ccccc21,-18,·,·,·,·,-4,-8,16,
CCOc1ccc(-c2ccc(SCC)nn2)cc1,-39,6,9,3,i,3,-2,-132,
Cc1ccc(C(C(=O)NCc2ccco2)N(C(=O)Cc2cccs2)c2cccnc2)cc1 (stereo not given),·,-4,-2,4,i,0,0,-4,
Cc1ccc(CCP(=O)(O)CN2CCOCC2)cn1,-15,0,3,10,i,1,1,-20,
Cc1ccc(NC(=S)c2nc3ccccc3s2)cc1,-16,-3,2,-7,i,1,-1,·,
Cc1cnc(NC(=O)C2(c3ccccc3)CC2)s1,·,99,-2,8,i,0,4,35,eIF4H inh retest=-11;PABP polyA inh retest=0
COc1ccc(S(=O)(=O)CCC(=O)N2CCN(c3ccc(C(C)=O)cc3)CC2)cc1,-3,8,-6,6,i,0,-3,-17,
COc1ccc(C(=O)N(c2ccccc2)C2C=CS(=O)(=O)C2)cc1 (stereo not given),-1,-6,-1,1,i,-7,0,·,
CCCCCCSC1=C(C#N)C(=O)NC2(CCCCC2)S1,-25,-3,12,-8,i,-1,0,-61,
CC1(C)OC(=O)N(CCc2ccccc2)C1(C)O (stereo not given),-8,-4,-8,-8,i,0,5,-31,
Cc1ccc(F)c(S(=O)(=O)NC(=O)C2(C)CCN2C(=O)CCc2cccs2)c1 (stereo not given),-11,·,·,·,·,-4,6,7,
COc1ccc(OC(C)C(=O)NCC2CCCO2)cc1 (stereo not given),-6,13,-1,2,i,2,6,11,
CCCn1c2ccccc2c2cnn(CC(=O)NCCCN3CCCCC3)c(=O)c21,-26,-16,-11,0,i,-5,-1,8,
COCCn1c(=O)[nH]c2cc(C(=O)Nc3cccc(C(C)=O)c3)ccc2c1=O,8,-2,2,-1,i,2,4,·,

# High-throughput results: PubChem, several laboratories
